# Screening results from PubChem.
# HNF4A DNA FP – change in binding of human HNF4 alpha to DNA; P41235; HNF4a-FITC DNA binding, fluorescence polarization, 1 h; 360,000 tested, 0.3% active; activity change, % at 10 µM; AID 1224865; in the data active means activity change above about 30%, passing the limit was not always enough;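 further: controls were the assay level and a saturating level of protein; the project sought stronger binding though the title names inhibitors; some compounds called inactive have numbers as strong as hits; positive values seem to mean higher polarization but the record does not say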
# ALR H2O2 inh – inhibitors of human sulfhydryl oxidase ALR; P55789; purified ALR, DTT oxidation, H2O2 HRP-luminol luminescence; inhibition, % (no concentration beside the values); 290,000 tested, 3.8% active;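 active means mean and each replicate at 75% or more; inconclusive means only one of the two met; inactive means neither met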;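 further: stock transfer was 7.5 nL into about 7.5 µL; 0% = neutral wells and 100% = wells with inactivated enzyme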
# Target sequence (P55789 whole entry, looked up): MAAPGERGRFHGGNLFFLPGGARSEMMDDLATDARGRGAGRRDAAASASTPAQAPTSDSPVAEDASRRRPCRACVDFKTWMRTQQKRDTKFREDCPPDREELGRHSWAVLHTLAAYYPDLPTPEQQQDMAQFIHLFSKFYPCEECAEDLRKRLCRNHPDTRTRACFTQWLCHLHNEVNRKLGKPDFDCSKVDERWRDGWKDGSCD
# E coli growth – E. coli growth inhibition. 330,000 tested, 0.21% active. Escherichia coli growth, OD600, 23 h; active compounds read low. AID 1053175. OD600 absorbance (test concentration not listed);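 active means OD600 absorbance below the run mean of sample wells minus 3.6 SD, in any replicate, cut at about 0.56 in these data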;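 further: stock transfer was 300 nL into about 60 µL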
# Vif A3G – inhibitors of Vif binding to APOBEC3G peptide, primary screen, biochemical, TR-FRET, GST-Vif 1-94, biotin-A3G peptide, dose response retest (AID 1117319); 260,000 tested, 0.57% active; TR-FRET GST-Vif / biotin-A3G peptide binding; higher % means a stronger effect; test concentration not given here; strong numbers were not always called active; one-dose inhibition, %; IC50 in µM for titrated hits;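 active means above the screen mean plus three standard deviations and confirmed in dose response; inconclusive means results disagree or hit not tested in dose response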;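 further: Vif residues 1-94 fused to GST binding biotinylated APOBEC3G peptide 110-148; 0% = full assay without inhibitor and 100% = GST in place of GST-Vif; retest series ran down from 100 µM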
# FGF22 binding – shifts melting point of recombinant human FGF22 | AID 651658 | recombinant FGF22 thermal shift, SYPRO orange fluorescence; percent of sucrose octasulfate shift, DMSO zero | calls only at 9.99 µM | Q9HCT0 | 340,000 tested, 1.5% active;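 active means melting point raised past a set limit in the mean and every replicate; inconclusive means no clear call; three in four hits are not shown here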
# Target sequence (Q9HCT0 whole entry, looked up): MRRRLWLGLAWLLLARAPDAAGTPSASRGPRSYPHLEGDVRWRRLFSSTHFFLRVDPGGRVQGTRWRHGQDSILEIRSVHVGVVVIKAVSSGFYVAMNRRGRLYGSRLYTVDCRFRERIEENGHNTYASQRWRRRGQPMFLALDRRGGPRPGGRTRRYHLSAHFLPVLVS
# MLL AF4-AF9 inh – MLL-AF4/AF9 protein interaction inhibition | AlphaScreen, biotin-AF4 peptide binding to FLAG-AF9 | 350,000 tested, 0.47% active | P42568 | inhibition, % at 10 µM;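 active means every replicate reaching a set inhibition limit, whatever the replicate mean, cut at about 25% in these data; inconclusive means mean inhibition reaches that limit but some replicates miss it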;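 further: 0% = plate neutral control median and 100% = total signal loss; the record names both 10 and 1 µM as test concentration; the first replicate is given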
# Target sequence (P42568 whole entry, looked up): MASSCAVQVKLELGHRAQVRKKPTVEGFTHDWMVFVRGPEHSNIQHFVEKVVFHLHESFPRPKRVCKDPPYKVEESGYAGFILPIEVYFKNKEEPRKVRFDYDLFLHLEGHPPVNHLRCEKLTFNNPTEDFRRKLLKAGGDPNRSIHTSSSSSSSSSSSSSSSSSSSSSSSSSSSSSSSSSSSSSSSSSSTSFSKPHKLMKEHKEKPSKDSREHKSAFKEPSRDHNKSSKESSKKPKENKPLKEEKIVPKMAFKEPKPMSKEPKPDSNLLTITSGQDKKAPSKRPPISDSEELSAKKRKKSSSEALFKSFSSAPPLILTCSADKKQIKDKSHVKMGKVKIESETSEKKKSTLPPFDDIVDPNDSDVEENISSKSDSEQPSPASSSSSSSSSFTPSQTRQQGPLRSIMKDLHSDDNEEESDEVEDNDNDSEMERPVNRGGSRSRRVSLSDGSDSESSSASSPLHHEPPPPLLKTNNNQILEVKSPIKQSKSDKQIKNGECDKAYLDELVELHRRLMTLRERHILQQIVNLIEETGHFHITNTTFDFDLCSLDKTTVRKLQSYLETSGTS
# Ecoli rRNA inh – selective bacterial rRNA inhibition in E. coli; GFP signal change (wild-type ribosome), % (no concentration beside the values); 350,000 tested, 1.6% active; E. coli WT GFP vs humanized-ribosome RFP mutants, fluorescence, 24 h; active compounds read low; DMSO median 0, no signal -100; AID 720706;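 active means significant combined selectivity score with lowered wild-type GFP, culture density cut under 30%, mutant RFP and density less affected; inactive means any of these conditions unmet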; further: one replicate is shown; some compounds called inactive have numbers as strong as hits
# Ecoli rRNA inh OD600 – second read-out of Ecoli rRNA inh, no call of its own (marks repeat the call); OD600 change, %; measured here: OD600 growth;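 optical density of the mix in the first replicate; 0 = DMSO median and -100 = no signal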
# Ecoli rRNA inh RFP – also measured in Ecoli rRNA inh; calls as there; RFP signal change, %; measured here: RFP humanized mutant strains;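 first replicate; 0 = DMSO median and -100 = no signal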
# Starred values were filed as active, the others as inactive; i = inactive; ? = inconclusive; · = no result given; & = joins results of further samples. This is a subset. The share of hits here may be higher or lower than overall.
Molecule,HNF4A DNA FP,ALR H2O2 inh,E coli growth,Vif A3G,FGF22 binding,MLL AF4-AF9 inh,Ecoli rRNA inh,Ecoli rRNA inh OD600,Ecoli rRNA inh RFP
COC(=O)CN1CCN(C(=O)c2ccco2)CC1,-3.3,-18,0.7,6%,i,1.0,5,0,1.8
N#Cc1cc(Oc2cccnc2)c(Oc2cccnc2)cc1C#N,1.2,-12,0.71,8%,·,·,·,·,·
CCOC(=O)N1CCN(C(=O)c2ccccc2NS(=O)(=O)c2ccc(C)cc2)CC1,-1.5,5,0.71,·,i,-0.4,4,4,2.0
CN1CCOc2cc(S(=O)(=O)NCc3ccc(S(N)(=O)=O)cc3)ccc21,3.9,1,0.71,·,i,-0.9,5,10,-1.5
COc1ccc(C(=O)N/C(=C/c2cccnc2)C(=O)N2CCN(C)CC2)cc1OC,1.9,-2,0.69,0%,i,1.3,3,6,-1.5
CN1CCCCc2c1nc1ccccc1c2N (tested in a mixture with another compound),-6.3,-15,0.67,-2%,·,·,·,·,·
O=c1c2ccccc2ncn1-c1cccc([N+](=O)[O-])c1,-0.6,0,0.64,·,i,·,9,7,-0.3
CC(C)c1ccc(N(CC(=O)NC2CCCCC2)C(=O)CNC(=O)c2ccco2)cc1,-0.2,3,0.67,·,i,-0.3,2,-9,2.8
Cc1noc(C)c1C(=O)Nc1ccc(F)cc1,0.3,-4,0.67,-4%,·,-0.8,13,7,-1.3
CCN(CC)CCCN(Cc1cc2cc(OC)ccc2[nH]c1=O)C(=O)Nc1ccc(F)cc1,7.8,-25,0.79,?,·,·,·,·,·
COc1ccccc1NC(=O)Nc1nc(C(N)Cc2ccccc2)cs1 (centres undefined),-2.2,·,·,·,i,6.2,-41,-73,-1.8
COc1ccc(CN2C(=O)c3ccccc3C2C(=O)NC2CCCCCC2)c(OC)c1 (centres undefined),3.1,·,0.67,·,i,-5.1,-7,-5,6.2
CC(=O)NC(c1cccc(F)c1)c1nc(-c2cc3ccccc3o2)cs1 (centres undefined),0.3,·,·,·,i,-1.7,10,15,1.7
COc1ccc(OCC(=O)NC(=S)Nc2ccc(N3CCOCC3)c(Cl)c2)cc1,-0.7,-19,0.71,8%,·,·,·,·,·
O=C(Nc1cccc(-c2nnc(-c3ccccc3)o2)c1)C1CCCO1 (centres undefined),-0.4,-3,0.66,-2%,·,·,·,·,·
CCC1NC(=O)c2ccccc2N1c1cccc(Cl)c1 (centres undefined),0.8,-5,0.64,·,i,3.3,-45*,-33*,-10*

# Two entries from above, as labelled records:
structure: COc1ccc(OCC(=O)NC(=S)Nc2ccc(N3CCOCC3)c(Cl)c2)cc1
  HNF4A DNA FP = -0.7 | ALR H2O2 inh = -19 | E coli growth = 0.71 | Vif A3G = 8% | FGF22 binding = · | MLL AF4-AF9 inh = · | Ecoli rRNA inh = · | Ecoli rRNA inh OD600 = · | Ecoli rRNA inh RFP = ·
structure: O=C(Nc1cccc(-c2nnc(-c3ccccc3)o2)c1)C1CCCO1 (centres undefined)
  HNF4A DNA FP = -0.4 | ALR H2O2 inh = -3 | E coli growth = 0.66 | Vif A3G = -2% | FGF22 binding = · | MLL AF4-AF9 inh = · | Ecoli rRNA inh = · | Ecoli rRNA inh OD600 = · | Ecoli rRNA inh RFP = ·

# Remaining list, next part.
Molecule,HNF4A DNA FP,ALR H2O2 inh,E coli growth,Vif A3G,FGF22 binding,MLL AF4-AF9 inh,Ecoli rRNA inh,Ecoli rRNA inh OD600,Ecoli rRNA inh RFP
C[C@H](CO)N1C[C@H](C)[C@H](CN(C)S(=O)(=O)c2ccccc2)Oc2ncc(Br)cc2C1=O,·,·,·,·,i,-7.5&-6.5,3,9,-3.4
O=C(CSc1nnc(-c2cccnc2)n1-c1ccccc1)N1CCN(c2ccc(F)cc2)CC1,0.8,39,0.73,?,·,·,·,·,·
COc1ccc(NC(=O)CSc2nccn2Cc2ccc(F)cc2)c(OC)c1,-1.3,-21,0.69,·,i,5.9,-15,-19,-2.8
Cc1c(C(=O)OC/C(O)=C(\C#N)c2nc3ccccc3[nH]2)oc2ccccc12,16,3,0.74,·,i,-0.1,10,0,1.8
C[C@@H]1CCCCO[C@H](CN(C)C(=O)Nc2ccc(C(F)(F)F)cc2)[C@H](C)CN([C@@H](C)CO)C(=O)c2cc(NC(=O)C3CCCCC3)ccc2O1,·,·,·,·,i,-0.2,-4,-3,-0.4
O=C(C[C@@H]1C[C@@H]2c3cc(NS(=O)(=O)c4ccc(F)cc4)ccc3O[C@@H]2[C@H](CO)O1)NCc1ccncc1,·,·,·,·,i,1.2,2,4,-2.2
COc1ccc(Nc2nc(C)nc3c2oc2ccccc23)c(OC)c1,1.6,3,0.71,-6%,i,2.5,8,20,-0.1
COC(c1ccccc1)c1nnc(CCC(=O)N(C)Cc2cccc(-n3cccn3)c2)o1 (centres undefined),-1.4,-1,0.7,·,i,-14,-2,-2,-1.4
CN(C)CC(=O)N1[C@@H](C#N)[C@@H](c2ccc(C#CC3CCCCC3)cc2)[C@@H]1CO,·,·,·,·,i,-3.7,-5,-15,1.4
COc1ccccc1C1=NN(C(=O)c2ccccc2)C(c2ccc(Br)cc2)C1 (centres undefined),5.5,-2,0.7,1%,i,0.7,2,6,-0.3
CS(=O)(=O)N1[C@H](CO)[C@H](c2ccccc2)C12CN(C(=O)c1ccccc1F)C2,·,·,·,·,i,-1.0,-1,8,0.0
CCOc1ccc(-c2nc(C#N)c(NC3CC3)o2)cc1,0.2,48,0.71,-1%,·,·,·,·,·
CC(C)CN(C(=O)COC(=O)c1cc(=O)[nH]c2ccccc12)c1c(N)n(Cc2ccccc2)c(=O)[nH]c1=O,-0.8,·,0.71,·,i,-4.2,2,5,-0.9
O=C(c1ccc(S(=O)(=O)N2CCCC2)cc1)N1CCN(Cc2ccc3c(c2)OCO3)CC1,0.0,-4,0.75,6%,·,·,·,·,·
C=CCn1c(SCC(=O)NC2CCCC2)nnc1-c1ccccn1,3.0,-8,0.67,·,i,-2.2,4,9,0.6
Cc1cc(NC(=O)CSc2nncn2N)no1,-1.6,-2,0.71,-4%,i,-1.3,22,19,1.2
CCOC(=O)C(c1ccccc1)C(Nc1ccccc1)c1ccccn1 (centres undefined),0.2,0,0.69,15%,i,·,-15,-2,4.2
CC1(C)CC(=O)C(C=Nc2cccnc2/N=C/C2=C(O)CC(C)(C)CC2=O)=C(O)C1,1.6,-2,·,?,i,-0.8,41,11,13
C[C@@H]1CN([C@@H](C)CO)C(=O)Cc2cc(NC(=O)NC3CCCCC3)ccc2O[C@H]1CN(C)CC1CCCCC1,·,·,·,·,i,3.4,-2,-26,16
O=c1c2cc(NC(=S)NC3CCCCC3)ccc2nc2n1CCCCC2,-1.4,-1,0.69,24%,i,5.7,-28,-34,-0.5
COc1ccccc1C(C)NC(=O)Cc1ccc(S(=O)(=O)N2CCOCC2)s1 (centres undefined),3.6,-6,0.68,5%,i,-16,-10,-13,3.4
CN1C(=O)c2cc(NS(=O)(=O)CC(F)(F)F)ccc2OC[C@H]2O[C@@H](CC(=O)NCC3CCCCC3)CC[C@@H]21,·,·,·,·,i,-3.5,0,-2,1.1
COc1ccc(CN2C(=O)N(c3ccccc3)C(=O)C2CC(=O)Nc2ccccc2)cc1OC (centres undefined),-1.7,-4,0.7,10%,i,-2.8,13,-1,-2.3
C=CCn1c(SC(C)C(=O)Nc2ccc(F)c(F)c2F)nnc1C1CC1 (centres undefined),3.2,1,0.7,2%,i,-1.1,5,6,-1.0
C[C@H]1CCCCO[C@@H](CN(C)S(=O)(=O)c2ccccc2)[C@@H](C)CN([C@@H](C)CO)C(=O)c2cc(NS(=O)(=O)c3cn(C)cn3)ccc2O1,·,·,·,·,i,0.9,-2,-5,0.8
COc1ccc(CN(C)C[C@@H]2OCCCC[C@H](C)Oc3ccc(NC(=O)Nc4ccc(C(F)(F)F)cc4)cc3C(=O)N([C@@H](C)CO)C[C@@H]2C)cc1,·,·,·,·,i,8.3,3,0,1.1
Cc1noc(C)c1NC(=O)N(C)C[C@@H]1Oc2c(NC(=O)Nc3cccc4ccccc34)cccc2C(=O)N([C@H](C)CO)C[C@@H]1C,·,·,·,·,i,1.7,-7,-9,-1.8
O=C(CNc1cccc(S(=O)(=O)N2CCCC2)c1)Nc1ccc(C(F)(F)F)cc1,2.4,0,0.68,1%,i,6.4,-19,-53,3.9
Cc1ccccc1NC(=O)Cc1nc(COC(=O)c2ccc(Cl)nc2)cs1,1.3,0,0.64,-12%,i,0.4,10,8,4.3
Cc1cc2cc(C)c3nnc(SCC(=O)Nc4ccc(S(=O)(=O)N5CCCCC5)cc4)n3c2cc1C,-3.6,-2,0.74,·,i,-23,·,·,·
Cc1nnc(NC(=O)c2ccc(C)c(S(=O)(=O)N3CCCCCC3)c2)s1,-2.5,0,0.74,-10%,·,·,·,·,·
Cc1ccc(C(=O)C2CCN(S(=O)(=O)c3ccccc3C(=O)O)CC2)cc1,-2.6,·,·,0%,i,0.4,2,-1,1.2
CCn1c(C)[n+](CC)c2ccc(S(=O)(=O)NC)cc21,-1.6,-11,0.67,-1%,i,0.4,17,17,2.1
O=C1N(Cc2cccnc2)C[C@@H]2C[C@@H](c3ccc(C(F)(F)F)cc3)N3CCC[C@@]123,5.7,4,0.69,-9%,i,-0.5,-1,-6,-6.1
CCOC(=O)N1CCN(c2cc(=O)n(-c3ccccc3Cl)c(=O)[nH]2)CC1,2.0,16,0.72,0%,i,0.5,9,8,-1.3
Cc1cccc(C)c1NC(=O)CSc1nnc(-c2cccnc2)o1,0.6,-4,0.7,-4%,i,-0.7,21,13,2.1
Cc1ccc(C(O)CSc2nnc(-c3ccc4ccccc4c3)n2C)cc1 (centres undefined),-2.6,·,0.7,24%,i,-1.5,-43,-39,-5.6
N/C(=N\OC(=O)c1ccc(Cl)c(Cl)c1)c1cccc(CSc2ccccn2)c1,-0.1,-4,0.69,-12%,i,·,4,8,4.9
Cc1c(C2C(C#N)=C(N)N(c3cccc([N+](=O)[O-])c3)C3=C2C(=O)CCC3)cnn1C (centres undefined),·,1,0.66,17%,i,-3.0,16,10,2.6
NNC(=O)CSc1nc(-c2ccccc2)nc2c1CCCC2,-1.8,0,0.67,-10%,i,0.1,2,1,0.2
CCN(CC)c1nc(-c2ccccc2)ncc1S(=O)(=O)c1ccc(C)cc1,0.4,5,0.72,4%,i,-2.7,11,16,1.8
O=C(C[C@H]1C[C@H]2c3cc(NC(=O)Nc4ccc(C(F)(F)F)cc4)ccc3O[C@H]2[C@H](CO)O1)NCc1cccnc1,·,·,·,·,i,-1.9,-1,3,-0.1
O=[N+]([O-])/C(N=Nc1ccccc1)=N\Nc1ccccc1,2.7,-30,·,0%,i,1.5,10,7,-3.9
CC(C)OC(=O)CSc1nnc(-c2cnccn2)n1C,-3.8,-8,0.76,16%,·,·,·,·,·
NS(=O)(=O)c1ccc(NC(=S)NCc2ccc(Cl)cc2)cc1,-1.0,2,0.76,4%,·,·,·,·,·
FC(F)(F)Oc1ccc(NC(=S)Nc2ccccc2N2CCOCC2)cc1,-1.2,1,0.63,·,i,·,-51*,-25*,-13*
COc1ccc(CCNC(=O)CCCCCNC(=O)N2CCn3c2nc2ccccc23)cc1OC,1.1,-1,0.67,-8%,i,-0.5,0,-5,2.9
O=C(C[C@@H]1CC[C@H]2[C@@H](COC[C@H](O)CN2C(=O)Nc2cc(Cl)cc(Cl)c2)O1)NCC1CCCCC1,·,·,·,·,i,0.1,-26,-58,14
CCCCC(=O)Nc1ccc2c(c1)nc(CN1CCN(C(=O)OCC)CC1)n2C,1.1,·,0.69,-3%,i,1.6,1,8,1.2
